E coli growth = inhibitors of Escherichia coli growth | OD600 absorbance (concentration not given with the values) | OD600, 23 h; hits give low values | hit rate 0.21% among 330,000 | AID 1053175;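 active = OD600 absorbance below the run mean of sample wells minus 3.6 SD, in any replicate, cut at about 0.56 in these data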;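 note: stock transfer was 300 nL into about 60 µL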
A1 inh = inhibitors of the anti-apoptotic protein A1, read as caspase activation | MEF A1-2A-BIM cells, Caspase-Glo 3/7 luminescence, 3 h; percent of clofoctol response, vehicle zero | caspase activation, % (concentration not given with the values) | hit rate 0.066% among 330,000 | AID 2462;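 active = over half of replicate activation scores above 10%, or exactly half above 10 with the replicate mean above 10; inconclusive = replicate mean below 10 yet half the replicates above 10; inactive = over half of replicates below 10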;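 note: wells of about 30 µL received 50 nL stock; many hits fall short of the cut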
T cruzi repl = T. cruzi replication inhibition. T. cruzi beta-gal in NIH3T3, luminescence, 90 h. inhibition, % (test concentration not listed). hit rate 1.4% among 300,000. AID 1885;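 active = mean inhibition across valid replicates above about 55%, limit read from the data; inconclusive = mean below that limit but half or more replicates reach it; inactive = mean below it, under half of replicates reach it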;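 note: signal also drops with host cell toxicity which is not excluded here; 0% = plate median of DMSO wells and 100% = zero luminescence signal; higher percent means less beta-gal luminescence so fewer parasites; stock transfer was 50 nL into about 50 µL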
rRNA inh HTS = inhibits bacterial ribosomal RNA function over humanized ribosomes | E. coli WT GFP vs humanized-ribosome RFP mutants, fluorescence, 24 h; hits give low values; DMSO median 0, no signal -100 | GFP signal change (wild-type ribosome), % (concentration not given with the values) | hit rate 1.6% among 350,000;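 active = significant combined selectivity score with lowered wild-type GFP, culture density cut under 30%, mutant RFP and density less affected; inactive = any of these conditions unmet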; note: one replicate is shown; some compounds called inactive have numbers as strong as hits
FGF22 binding = FGF22 (human) thermal shift binding | recombinant FGF22 thermal shift, SYPRO orange fluorescence; percent of sucrose octasulfate shift, DMSO zero | calls only at 9.99 µM | hit rate 1.5% among 340,000 | AID 651658;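 active = melting point raised past a set limit in the mean and every replicate; inconclusive = no clear call; three in four hits are not shown here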
Target sequence (Q9HCT0 whole entry, looked up): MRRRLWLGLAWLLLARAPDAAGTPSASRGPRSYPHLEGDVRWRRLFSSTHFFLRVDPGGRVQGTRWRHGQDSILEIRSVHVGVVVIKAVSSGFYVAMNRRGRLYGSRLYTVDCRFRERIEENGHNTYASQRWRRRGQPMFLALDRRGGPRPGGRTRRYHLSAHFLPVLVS
Beta apoptosis = beta cell apoptosis inhibition | hit rate 0.8% among 300,000 | INS-1E cytokine-induced death, ATP luminescence, 48 h; percent of positive-control rescue, neutral wells zero | protection from apoptosis, % (no concentration beside the values);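 active = all replicates at 75% or more, or half of them and the mean; inconclusive = half reach 75% but not the mean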;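 note: 0% = cytokine-treated negative control wells and 100% = positive control rescue; higher means more ATP so stronger rescue from cytokine killing; wells of about 40 µL received 100 nL stock; the first replicate is given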
MLL AF4-AF9 inh = MLL-AF4/AF9 protein interaction inhibition. hit rate 0.47% among 350,000. AlphaScreen, biotin-AF4 peptide binding to FLAG-AF9. inhibition, % at 10 µM. P42568;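 active = every replicate reaching a set inhibition limit, whatever the replicate mean, cut at about 25% in these data; inconclusive = mean inhibition reaches that limit but some replicates miss it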;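 note: 0% = plate neutral control median and 100% = total signal loss; the record names both 10 and 1 µM as test concentration; the first replicate is given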
Target sequence (P42568 whole entry, looked up): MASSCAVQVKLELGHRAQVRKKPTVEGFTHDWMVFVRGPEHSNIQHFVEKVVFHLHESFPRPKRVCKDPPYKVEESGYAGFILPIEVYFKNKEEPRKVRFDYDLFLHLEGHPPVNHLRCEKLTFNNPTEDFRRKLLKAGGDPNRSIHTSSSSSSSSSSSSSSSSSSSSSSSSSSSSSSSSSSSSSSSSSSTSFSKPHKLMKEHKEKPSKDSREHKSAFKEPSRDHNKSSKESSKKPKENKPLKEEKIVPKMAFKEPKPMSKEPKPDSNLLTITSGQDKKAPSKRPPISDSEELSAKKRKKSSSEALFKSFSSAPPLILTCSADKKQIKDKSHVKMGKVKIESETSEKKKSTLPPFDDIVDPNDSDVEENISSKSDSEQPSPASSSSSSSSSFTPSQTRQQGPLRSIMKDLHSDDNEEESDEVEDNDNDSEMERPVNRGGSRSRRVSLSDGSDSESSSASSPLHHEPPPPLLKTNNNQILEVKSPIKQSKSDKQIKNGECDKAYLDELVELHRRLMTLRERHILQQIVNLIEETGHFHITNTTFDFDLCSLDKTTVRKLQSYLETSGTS
UCH37 DUB inh = blocks the human deubiquitinase UCH37; Q9Y5K5; purified proteasome/UCH37, Ub-AMC cleavage fluorescence; inhibition, % (test concentration not listed); hit rate 0.33% among 330,000; AID 588478;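 active = mean of two replicates above 20%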;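 note: 0% = compound-free wells with enzyme and 100% = wells lacking proteasome; stock transfer was 100 nL into about 20 µL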
Target sequence (Q9Y5K5 whole entry, looked up): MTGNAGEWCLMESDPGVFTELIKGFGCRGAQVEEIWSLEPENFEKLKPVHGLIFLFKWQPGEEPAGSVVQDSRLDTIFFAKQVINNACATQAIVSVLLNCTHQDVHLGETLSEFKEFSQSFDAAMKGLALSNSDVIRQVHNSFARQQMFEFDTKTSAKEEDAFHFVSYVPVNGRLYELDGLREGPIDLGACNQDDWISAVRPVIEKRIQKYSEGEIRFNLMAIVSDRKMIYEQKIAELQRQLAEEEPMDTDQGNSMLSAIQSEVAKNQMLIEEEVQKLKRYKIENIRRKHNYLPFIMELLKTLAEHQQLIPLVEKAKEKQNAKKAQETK
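Signal – fluorescence, ex 355 nm, em 460 nm · System – Proteasome-bound UCH37 · Input – 0.15 nM proteasome as dispensed · Timing – 30 min preincubation with enzyme, 25 min cleavage at room temperature · Read-out basis – percent inhibition of cleavage signal versus uninhibited and no-proteasome wells · Medium – Tris-HCl pH 7.4 with ATP-MgCl2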
rRNA inh HTS OD600 = also measured in rRNA inh HTS; calls as there; OD600 change, %; measured here: OD600 growth;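 optical density of the mix in the first replicate; 0 = DMSO median and -100 = no signal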
rRNA inh HTS RFP = second read-out of rRNA inh HTS, no call of its own (marks repeat the call); RFP signal change, %; measured here: RFP humanized mutant strains;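 first replicate; 0 = DMSO median and -100 = no signal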
Starred values were filed as active, the others as inactive; i = inactive; ? = inconclusive; . = not tested or not shown. This is a subset; count on the stated rates, not on these rows.

SMILES	E coli growth	A1 inh	T cruzi repl	rRNA inh HTS	rRNA inh HTS OD600	rRNA inh HTS RFP	FGF22 binding	Beta apoptosis	MLL AF4-AF9 inh	UCH37 DUB inh
CN(c1ccccc1)S(=O)(=O)c1cccc(Cl)c1Cl	0.69	0.3	4	-9	-10	-6.7	i	-13	-17	0.2
Cc1ccc(/C=C/C(=O)O)cc1S(=O)(=O)NCc1cccnc1	0.68	0.8	4	8	4	2.6	i	4	-39	2.6
Cc1cc(C)cc(NC(=O)CSc2nnc(-c3ccccc3C)o2)c1	0.73	0.5	7	.	.	.	.	5	.	2.1
COC(=O)[C@H](CCSC)NC(=O)Nc1ccc(C)cc1C	0.71	0.6	-10	.	.	.	.	.	.	6.9
COc1ccc(C(=O)Cn2c(Cl)nc3c2c(=O)n(C)c(=O)n3C)cc1	0.71	0.4	-2	.	.	.	i	3	1.0	0.4
COc1ccccc1CC(=O)NCc1csc(-c2cccs2)n1	0.66	0.0	5	-21*	9.4*	2.7*	i	-4	0.2	-2.2
C=CC[C@H](CC(=O)NCCO)C(=O)N[C@@H](C)COC(=O)[C@H](CC=C)CC(=O)OC(C)(C)C	0.7	0.3	.	2	4	-1.7	i	1	-1.1	0.1
CC(C)=C1C2C=CC1C(C(=O)Nc1cc(C)ccc1C)C2C(=O)O (centres undefined)	0.7	1.0	.	.	.	.	.	-8	.	0.8
CCOC(=O)N1CCC(NC(=O)CCCN2C(=O)CSc3ncccc32)CC1	0.7	-0.3	-19	.	.	.	.	-6	.	-1.0
COc1ccc(OCCn2cc(/C=N/NC(=O)c3ccncc3)c3ccccc32)cc1	.	-0.1	-11	-20*	2.0*	1.1*	i	-2	?	.
O=C1c2ccccc2NC(c2ccccn2)N1NS(=O)(=O)c1ccccc1 (centres undefined)	0.64	1.9	-11	4	4	-2.1	i	.	-1.0	-119
COc1cccc(Sc2ccccc2CN(C)C)c1	0.76	0.7	17	.	.	.	.	-33	.	6.0
Cc1ccc(NC(=S)N(CCCN2CCN(C)CC2)Cc2cccs2)cc1C	0.72	-1.2	7	-3	-6	-0.8	i	-9	7.5	3.6
O=C(CSc1nnc(CNC(=O)c2cccs2)o1)NC1CCCC1	0.69	0.2	-7	.	.	.	.	-4	.	0.6
Cc1ccc(C(NC(=O)C(C)C)c2cc([N+](=O)[O-])c3cccnc3c2O)cc1 (centres undefined)	0.66	-0.9	7	.	.	.	.	61	.	6.4
Cc1ccc(NC(=O)Cn2c(=O)oc3cc(S(=O)(=O)N4CCC(C)CC4)ccc32)cc1C	0.8	-0.5	-10	-3	-2	2.9	i	76*	-6.2	2.8
COc1ccc(CN2CCNC(=O)C2CC(=O)N(C)Cc2cc(C)no2)cc1OC (centres undefined)	0.7	0.0	-10	9	9	0.2	i	-4	-1.5	1.9
CC(=O)c1c(C)nc(-c2ccccc2)n1O	0.68	0.1	7	.	.	.	.	-7	.	1.9
O=S(=O)(Cc1ccccc1)NCCc1ccc(F)cc1	0.62	-0.2	-5	2	9	-6.0	i	-3	-2.9	6.6
CCC1CCCCN1C(=O)CNCC1CCCO1 (centres undefined)	0.7	0.8	-8	5	-1	-3.0	i	-7	0.8	2.5

One compound at a time, from the list above. Order of values: E coli growth	A1 inh	T cruzi repl	rRNA inh HTS	rRNA inh HTS OD600	rRNA inh HTS RFP	FGF22 binding	Beta apoptosis	MLL AF4-AF9 inh	UCH37 DUB inh
Listed for O=S(=O)(Cc1ccccc1)NCCc1ccc(F)cc1 : 0.62	-0.2	-5	2	9	-6.0	i	-3	-2.9	6.6
Listed for COC(=O)[C@H](CCSC)NC(=O)Nc1ccc(C)cc1C : 0.71	0.6	-10	.	.	.	.	.	.	6.9

Going on with the list:
SMILES	E coli growth	A1 inh	T cruzi repl	rRNA inh HTS	rRNA inh HTS OD600	rRNA inh HTS RFP	FGF22 binding	Beta apoptosis	MLL AF4-AF9 inh	UCH37 DUB inh
CN(C)N=Nc1nc2c(c(=O)n(C)c(=O)n2C)n1C	0.7	-0.7	-19	3	4	-1.9	i	-4	-2.1	14
COc1ccnc(Oc2ccccc2)c1C(=O)N/C=N/OCc1ccccc1	0.66	-0.1	16	-7	-6	-4.3	i	-1	-1.2	1.0
COc1ccc(S(=O)(=O)NCC2CCCN(C(=O)c3sccc3C)C2)cc1 (centres undefined)	0.66	0.6	-13	-3	1	0.6	i	1	-1.0	-2.6
CCN(C[C@H]1N[C@@](C)(C(=O)OC)[C@H]2C(=O)N(C)C(=O)[C@@H]12)S(=O)(=O)c1ccccc1	0.71	.	.	16	8	-0.8	i	.	0.9	4.3
CCOC(=O)C1(Cc2cccc(Cl)c2)CCCN(C(=O)CCC(=O)N(C)C)C1 (centres undefined)	0.72	0.2	-13	3	7	2.6	i	0	0.5	0.9
O=C(NC1CC1)C1=C[C@H](C2CCCCC2)C[C@H](OCc2ccc(CO)cc2)O1	.	0.5	16	-5	-23	18	i	-3	-7.8	6.6
Cc1ccc(NC(=O)CSc2nnc(-c3ccccc3Br)o2)cc1C	0.71	-0.1	5	.	.	.	.	.	.	0.0
COc1ccccc1N(CC(=O)NCc1ccccc1)C(=O)CCC(=O)Nc1cc(C)ccn1	0.72	-1.0	2	.	.	.	.	-6	.	2.9
Cc1cc(S(=O)(=O)Nc2ccc(C(=O)NCC3(N(C)C)CCCCC3)cc2)ccc1F	0.7	0.0	44	9	9	-1.6	i	-7	2.2	-0.9
O=C(NCc1ccc2c(c1)OCO2)Nc1ccc([N+](=O)[O-])cc1	0.6	-0.1	12	-5	1	-2.4	i	26	0.9	1.0
COc1ccc(C(=O)NCCS(=O)(=O)N2CCN(C(=O)c3ccco3)CC2)cc1	0.66	1.3	-5	8	21	0.8	i	1	-6.0	-1.2
CCOC(=O)CCc1c(C)nc2ncnn2c1C	0.69	1.2	8	.	.	.	.	-6	.	6.8
OCCNc1nc(Nc2cc(Cl)ccc2OC2CCCC2)nc(N2CCCC2)n1	0.68	0.8	43	9	11	3.2	i	-3	3.3	2.3
CC(C)c1ccc(NC(=O)CSC(C)c2nc3ccccc3c(=O)[nH]2)cc1 (centres undefined)	0.73	0.4	0	22	5	3.2	i	-2	.	0.4
CCN(CC)CC(=O)NCc1cc(-c2ccc(OC)cc2)no1	0.68	0.6	1	.	.	.	.	-4	.	0.5
CCOC(=O)c1[nH]cnc1C(=O)N[C@@H](C)c1ccccc1	.	-0.9	.	8	10	-3.4	i	-2	-4.8	1.1
CCC(Oc1ccccc1)C(=O)NCCCN1CCOCC1 (centres undefined)	0.69	-0.2	12	14	14	0.3	i	-5	-2.6	-1.5
O=C(NCC1CC1)c1onc(CSc2nc3ccccc3[nH]2)c1C(=O)NCC1CC1	0.67	-0.3	15	-11	-13	-10	i	-3	6.7	1.3
COc1ccc2[nH]cc(C(=O)CNc3nc(C)cs3)c2c1	0.68	?	0	.	.	.	.	2	.	-0.9
C=CCNC(=O)C(=O)NCC1CCCN1CC (centres undefined)	0.63	-0.1	-17	15	12	2.8	i	5	-1.2	2.2
COC(=O)c1ccccc1S(=O)(=O)N1CCC(C(=O)NC2CCCCC2C)CC1 (centres undefined)	0.64	0.2	.	.	.	.	i	-3	-1.2	4.0
COc1ccc(S(=O)(=O)N2CCCCC2C)cc1 (centres undefined)	0.72	3.6	-1	-3	-6	-0.8	i	2	29*	-0.8
C=CCn1c(C)cc(C(=O)Cn2ncc(Cl)c(Cl)c2=O)c1C	0.73	2.7	-26	12	5	1.6	i	-8	-6.1	2.8
CCOc1ccc(-c2c(C)n([O-])c3c([n+]2=O)CCCCC3)cc1	0.73	-1.4	-2	2	1	-3.5	i	-2	-1.3	3.6
CCCCC(=O)Nc1nc(C)c(-c2csc(Nc3ccc(Cl)cc3)n2)s1	.	-1.4	22	.	.	.	.	-1	.	0.4
O=C(NNC(=O)c1ccccc1Cl)c1ccccc1Cl	0.71	0.0	-17	20	4	0.1	i	-5	-5.8	2.0
Cc1cc(Cl)ccc1C(=O)C1CCCN(C(=O)c2cscn2)C1 (centres undefined)	0.69	0.6	-1	-3	-4	-14	i	-8	0.0	0.8
CCN1CCC(N2CCN(c3ccccc3OC)CC2)CC1	0.65	1.5	2	11	14	-7.1	i	-3	0.4	1.5
CCOC(=O)N1CCN(C(=O)COc2ccc(S(=O)(=O)Nc3ccc(OCC)cc3)cc2)CC1	0.67	-0.7	-20	.	.	.	.	3	.	1.6
O=C(CSc1nnc(Cn2nnc(-c3ccccc3)n2)n1-c1ccccc1)Nc1ccccc1	0.72	2.7	23	.	.	.	.	-2	.	1.1
O=C(COc1ccccc1)Nc1ccccc1N1CCCCC1	0.73	-0.2	17	.	.	.	.	2	.	1.6
CCOC(=O)C(=CNc1cc(C)nn1C(C)(C)C)C(=O)OCC	0.67	0.3	7	.	.	.	.	-3	.	1.4
COc1ccc(NC(=O)Nc2nnc(Cc3ccccc3)s2)cc1	0.69	-0.3	-3	11	9	2.8	i	1	-0.2	-0.3
O=C(NCC(O)c1ccccc1)c1cccs1 (centres undefined)	0.66	-1.5	-7	7	8	-1.0	i	.	0.1	3.5
O=C(Cc1cccs1)Nc1ccc(F)c(S(=O)(=O)N2CCOCC2)c1	0.71	.	.	5	2	-1.5	i	.	-3.8	3.3
Cc1ccc(S(=O)(=O)N(C)CC(=O)Nc2ccc3c(c2)OCO3)cc1	0.62	1.0	2	-2	-5	-2.3	i	3	-2.1	-1.1
CCC(C)(C)C1CCC2(CC1)NC(=O)N(CC(=O)N1CCN(C(=O)c3ccco3)CC1)C2=O (centres undefined)	0.69	-1.6	.	10	13	-1.9	i	-4	-1.3	1.8
CCOC(=O)C(Cc1ccc(Cl)cc1Cl)c1ccno1 (centres undefined)	0.68	-0.5	-5	-27	-27	-4.7	i	-7	-4.3	-1.6
COc1ccccc1N1CCN(C(=O)CN2C(=O)c3ccccc3S2(=O)=O)CC1	0.73	0.7	2	4	-4	-1.4	i	-5	2.3	1.5
Cn1c(=O)c(C(=O)NNC(=O)c2ccccc2F)c(O)c2ccccc21	0.69	-0.8	-13	7	0	0.8	i	0	-3.6	-6.5
Cc1cccc([C@H]2[C@@H]3C=CCC[C@@H]3C(=O)N2Cc2ccccc2)c1	0.71	.	.	-36	-62	-10	i	.	-27	3.1
C=CCNC(=O)NC(=O)CSc1nnc(C(F)(F)F)n1C	0.65	0.0	-11	19	20	0.5	i	-1	-0.7	1.3
CN(C)C(=S)Oc1ccccc1-c1ccccc1OC(=S)N(C)C	0.71	1.8	-1	0	2	-7.0	i	3	-31	1.2
CC(=O)c1c(N2CCOCC2)nc2ccc(Br)cc2c1-c1ccccc1	0.72	-0.2	3	-6	-4	-1.5	i	.	10	1.4
CC(C)Cn1c(-c2csc(C(C)C)c2)n[nH]c1=S	0.68	-0.6	10	-4	0	-2.3	i	1	-5.3	3.8
CN(C)c1nc(Cl)cc(N2CCOCC2)n1	0.71	-0.6	-4	.	.	.	.	.	.	3.6
